Tg IFNy HTS: inhibitors of Toxoplasma gondii growth with IFN-gamma; Toxoplasma gondii growth in IFN-gamma-treated host cells; stronger effect = lower value; reference of the scale not given here; 69,000 compounds, 3.8% hits; activity change, negative = inhibition, %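 (about 20 µM by stock and volumes)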;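 active = below -70%; inconclusive = fit judged invalid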;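 note: host cells are HeLa cells infected with Toxoplasma gondii; parasite growth read as luciferase light; one replicate is shown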
Numbers without * were called inactive; i = inactive; ? = inconclusive; & = joins results of further samples.

SMILES	Tg IFNy HTS
C[C@@H]1CCCCO[C@@H](CN(C)Cc2ccncc2)[C@@H](C)CN([C@@H](C)CO)C(=O)c2cc(NS(=O)(=O)c3ccc(Cl)cc3)ccc2O1	50
CC(=O)N1CC2(C1)[C@H](c1ccc(-c3ccc(F)cc3)cc1)[C@@H](CO)N2CC1CC1	4
CCOc1ccccc1-c1ccc(C(=O)N2CCOCC2)o1	54
COCCNC(=O)C[C@H]1CC[C@@H]2[C@H](COc3ccc(NS(=O)(=O)c4ccc(Cl)cc4)cc3C(=O)N2C)O1	-15
Cc1ccc(NC(=O)C(=O)NCCc2sc(-c3ccc(F)cc3)nc2C)cc1F	34
C[C@H]1CCCCO[C@H](CN(C)CC2CCCCC2)[C@@H](C)CN([C@@H](C)CO)C(=O)c2cc(NS(C)(=O)=O)ccc2O1	-7
CCC(C)c1ccccc1OCC(=O)N1CCC(N2CCCC2)CC1 (stereo not given)	-6
COc1cccc2ccc(CN(C)Cc3cccc4ncccc34)nc12	1
Cc1ccc(-c2nnc(SCc3cc(=O)[nH]c4ccccc34)n2-c2ccccc2)cc1	-26
CCc1cnc(N2C[C@@H]3C[C@H](C(=O)N4CCOCC4)[C@@H](C2)O3)nc1	91
CCOC(=O)c1c(NC(=O)c2ccccc2)sc(C(=O)Nc2ccccc2)c1C	3
Cc1ccc(S(=O)(=O)N(C)C[C@H]2Oc3c(NS(C)(=O)=O)cccc3C(=O)N([C@@H](C)CO)C[C@@H]2C)cc1	-15
O=C(c1cccs1)N1CCCn2cnc(CN3CCCC3)c2C1	2
COc1ccc(-c2cc3c(n(C)c2=O)CCN(C(=O)c2cn4c(C)cccc4n2)C3)c2ccc(C)nc12	-51
Cc1ccc(OCCN(C)Cc2ccccc2O)c(C)c1	-47
COc1ccc(-n2ccnc2C2CC(=O)Nc3cc4[nH]ncc4cc32)cc1 (stereo not given)	-50
CC(C)(C)S(=O)N1Cc2cc(C(=O)N3CCN(Cc4ccccc4)CC3)nc(-c3cccc(-c4cc5ccccc5o4)c3)c2[C@H]1CCO (stereo not given in full)	-61
O=C(CCN1CCCCC1)NCC[C@@H]1CC[C@@H](NS(=O)(=O)c2cccc(Cl)c2)[C@@H](CO)O1	-32
Cc1nc(-c2cccc(F)c2)sc1CCNC(=O)c1ccc(Br)cc1	-50
CCCn1nccc1C(=O)NC[C@@H]1CCNC[C@H]1O	8
CCn1c2ccccc2c2cc(NC(=O)C3CCN(S(=O)(=O)CC)CC3)ccc21	1
CC1(C)c2ccccc2N(CCC(N)=O)C12C=Cc1c(ccc3ccccc13)O2 (stereo not given)	5
CN1CCN(C(=O)C2CC23C(=O)Nc2ccccc23)CC1 (stereo not given)	-22
COC(=O)[C@@H]1C[C@@H](NC(=O)c2cc(-n3cccn3)ccc2Cl)CN1C	3
OC(CNCC1COc2ccccc2O1)c1ccccc1 (stereo not given)	-12

Additional structures
SMILES	Tg IFNy HTS
CC(=O)Nc1nc(CCC(C)C)cc2c1c(=O)oc1ccccc12	4
CN(CCCNS(=O)(=O)c1ccc2c(c1)CCC(=O)N2)c1ccccc1	70
CC(CCCC(C)(C)O)CCN1CCC2(CC1)C(=O)NCCCN2C (stereo not given)	7
CN(CCCc1ccccc1)C(=O)c1cc(CN2CCC(O)CC2)on1	7
Cc1noc(C)c1NC(=O)Nc1ccc2c(c1)C(=O)N([C@H](C)CO)C[C@@H](C)[C@@H](CN(C)S(=O)(=O)c1cccs1)OCCCC[C@H](C)O2	-42
O=C(O)c1nn(-c2ccc(Cl)cc2)c(=O)c2ccccc12	174
C/C=C/c1ccc2c(c1)O[C@@H](CN(C)C(=O)Nc1ccc(OC)cc1)[C@H](C)CN([C@H](C)CO)S2(=O)=O	104
CN1CCC(CN2CCN(CCC(=O)Nc3cccnc3)CC2)CC1	-19
CCCC#Cc1cnc2c(c1)C(=O)N([C@@H](C)CO)C[C@H](C)[C@@H](CN(C)C(=O)Nc1cc(F)ccc1F)O2	3
Cc1nn(C)c(C)c1CCC(=O)N1Cc2ccccc2OC2(CCOCC2)C1	67
CO[C@@H]1CN(C)C(=O)c2cc(NC(=O)Nc3cccc(Cl)c3)ccc2OC[C@H](C)N(C(=O)Nc2c(C)noc2C)C[C@H]1C	214
C[C@@H]1CN([C@H](C)CO)C(=O)c2cc(NC(=O)NC3CCCCC3)ccc2O[C@H]1CN(C)S(C)(=O)=O	14
c1cncc(OCCCn2ccnc2-c2cccc3nonc23)c1	-49
COC(=O)C[C@H]1CC[C@@H]2[C@@H](COc3ccc(NC(=O)c4ccc(C(F)(F)F)cc4)cc3C(=O)N2C)O1	30
Cc1nc(N2CCCC2)nc(-c2ccc(S(C)(=O)=O)cc2)c1C	-3
CCN(CC)CCCNC(=O)c1cc2c(c3ccccc3n2CC2CC2)n1C	-77*
Cc1ccc(C2(O)CCN(C(=O)c3csc(CN(C)C)n3)CC2)nc1	-9
O=C(C1CCOCC1)N1CC[C@H]2[C@H](CCCN2C(=O)/C=C/c2cccc(F)c2)C1	-49
CN(C)CC(=O)N[C@@H]1C=C[C@H](CC(=O)NCc2ccc(Cl)cc2)O[C@@H]1CO	25
CCc1ccc(OCCN(C)C(=O)c2ccc(C(C)=O)s2)cc1	-15
CSCC1CN(/N=C/c2ccc([N+](=O)[O-])o2)C(=O)O1 (stereo not given)	14
CC(C)C[C@@H](CO)n1cc(-c2ccnc3ccccc23)nn1	-5
COc1ccc(S(=O)(=O)Nc2cncc(C(=O)Nc3cc(C)cc(C)c3)c2)cc1OC	31
O=C(NCCNc1ccc(Cl)cc1[N+](=O)[O-])c1cccnc1	-5
Cc1noc([C@H]2C[C@@H]3OCC[C@@H]3N(S(C)(=O)=O)C2)n1	-8

The listing continues.
SMILES	Tg IFNy HTS
COCC1CC2(CCN(C(=O)Cc3ccccc3C)CC2)CO1 (stereo not given)	-35
COc1ccc(-n2c(Cc3c(C)n[nH]c3C)n[nH]c2=O)c(C)c1	9
COc1ccccc1NC(=O)N1C[C@H](O)COC[C@H]2O[C@H](CC(=O)N3CCC(Cc4ccccc4)CC3)CC[C@@H]21	-28
CCC(=O)NC1CCc2c(ccc(=O)n2Cc2csc(C)n2)C1 (stereo not given)	-3
C(=C\c1ccc(C2[C@H]3CNC[C@@H]2N3Cc2nccs2)cc1)/c1ccccc1 (stereo not given in full)	-24&-16
COc1ccc(-c2ccccc2OC(C)C(N)=O)cn1 (stereo not given)	2
COCc1ccc(C(=O)N(C)CCSc2ccc(C)cc2)s1	-9
CC(Cn1cccn1)C(=O)N1CCC(Cc2cccc(C(=O)O)c2)CC1 (stereo not given)	23
O=S(=O)(c1cc(-c2nnc(C3CC3)o2)co1)N1CCC(N2CCCCC2)CC1	9
Cc1nc(C(C)C)ncc1C(=O)N1CCn2nc(C(=O)NC3CC3)cc2C1	-15
C[C@@H]1CCCCO[C@@H](CN(C)S(=O)(=O)c2ccc(Cl)cc2)[C@@H](C)CN([C@H](C)CO)C(=O)c2cc(NC(=O)Nc3ccc(C(F)(F)F)cc3)ccc2O1	44
O=C1N[C@H](c2ccccc2)COCn2nncc2CC[C@H]1Cc1ccccc1	-16
CO[C@H]1CC[C@H]2CCOc3c(C#N)cccc3C(=O)N(C)C[C@@H](OC)[C@H](C)C(=O)N(C)C[C@H]1O2	-12
CN(C)c1ncc(-c2nccn2CCc2cn[nH]c2)cn1	53
COc1cccc2c(=O)c3ccccc3oc12	39
c1cncc(CNc2nnc(-c3ccsc3)c(-c3ccsc3)n2)c1	-28
CC(C)Cc1ccc(S(=O)(=O)N2CCC3(CC2)NCCN=C3NCc2ccc(Cl)cc2)cc1	-63
O=C(C1CCCCC1)N(Cc1ccc(Br)cc1)c1ccc(F)cc1	?
CC(NC(=O)C1CCN(Cc2ccco2)CC1)c1cn2ncsc2n1 (stereo not given)	2
CN1C(=O)c2cc(NC(=O)c3cccc(Cl)c3)ccc2OC[C@H]2O[C@@H](CC(=O)NC3CCCCC3)CC[C@H]21	-34
O=C1C(c2c(O)[nH]c3ccccc23)=Nc2ccccc21	-3
Cc1nn(C)c(C)c1-c1cc(C(=O)N2CC(c3ccncc3)C2)n(C)n1	-8
CCS(=O)(=O)N1C[C@H]2COC[C@@H](CC(=O)N3CCCC3)[C@H]2C1	-17
CCC(=O)N1[C@H](CN(CC)C(=O)c2cccc(F)c2)[C@H](c2ccccc2)[C@@H]1CO	-6
CC(CCc1ccco1)Nc1ncnc2sc3c(c12)CCNC3 (stereo not given)	-8

Remaining list, next part:
SMILES	Tg IFNy HTS
O=C1CC[C@@H](NC(=O)c2nc3nc4c(c(=O)n3[nH]2)CCC4)[C@H](c2ccsc2)N1	43
CCc1cccc(C)c1NC(=O)C1=C(C)C(=O)OC12CCN(CC)CC2	153
C[C@@H]1CN([C@H](C)CO)C(=O)Cc2cc(N(C)C)ccc2O[C@@H]1CN(C)C(=O)NC1CCCCC1	-16
COC(=O)C1=C(C)NC(C)=C([N+](=O)[O-])C1c1ccccc1C(F)(F)F (stereo not given)	9&17&2
O=C(O)c1cc(-c2cccc3c2OCC3)cc(S(=O)(=O)N2CCCC2)c1	-2
COc1cc(OC)c(NC(=O)N2CCC3(CC2)Nc2ccccc2-n2cccc23)cc1Cl	i
C[C@H](O)CNC(=O)c1cc(Cn2ccc3ccccc32)[nH]n1	3
CN1C(=O)c2cc(NC(=O)c3cscn3)ccc2OC[C@@H]2O[C@H](CC(=O)NCc3ccc(Cl)c(Cl)c3)CC[C@H]21	-39
Cn1cc(CNC(Cn2ccnc2)c2ccccc2)c(-c2ccc3c(c2)OCCO3)n1 (stereo not given)	6
S=C(Nc1cc(Cl)ccc1Cl)Nn1cnnc1	-23
O=C(NCc1ccccc1F)[C@@H]1[C@@H](CO)[C@@H]2Cn3c(cccc3=O)[C@@H]2N1CC1CCCC1	-19
COc1ccc(NC(=O)c2cccc(Cn3nc(C)c(Br)c3C)c2)cc1	55
CC(C)(C)c1ccc(C(=O)NC(=S)Nc2ccc(N3CCCCC3)cc2)cc1	-88*
COc1cccc(NC(=O)N2C[C@H](O)COC[C@@H]3O[C@@H](CC(=O)N(C)C)CC[C@H]32)c1	31
O=C(c1ccc(-n2nc(C(F)(F)F)c3c2CCCC3)cc1)N1CCN(C2CCCCC2)CC1	-66
COCC#Cc1ccc2c(c1)O[C@H](CN(C)C(=O)C1CCOCC1)[C@H](C)CN([C@@H](C)CO)S2(=O)=O	51
CCc1cnc(N2CCc3ncnc(-c4cnn(C)c4)c3CC2)nc1	2
C/C=C/c1ccc([C@@H]2[C@@H](CO)N3C(=O)CN(C(=O)Nc4cccc(OC)c4)C[C@@H]23)cc1	-28
COc1cccc(CNC(=O)C[C@@H]2CC[C@H]3[C@@H](COc4ccc(NC(=O)c5cccs5)cc4C(=O)N3C)O2)c1	4
O=C(NCCN1CCCCC1)c1ccc(I)cc1	-23&22
O=C(Nc1cccc(F)c1)c1nnc(C2CCCN2C(=O)c2cc3ccccc3[nH]2)s1 (stereo not given)	65
CN1CC(=O)N(c2cnn(C)c2)CC12CCN(C(=O)c1cnccn1)C2 (stereo not given)	6
COc1ccc(OC)c(CNC(=O)c2nc(N3CCCC3)c3ccccc3n2)c1	-61
Cc1cc(C)c2[nH]c(C)c(CC(=O)N3CCC(N4CCCC4=O)CC3)c2c1	0
Cc1scc(C(=O)O)c1-c1ccccc1	15

Arranged by number of heavy atoms (descending): 14 of the compounds above
SMILES	Tg IFNy HTS
COCC#Cc1ccc2c(c1)O[C@H](CN(C)C(=O)C1CCOCC1)[C@H](C)CN([C@@H](C)CO)S2(=O)=O	51
C[C@@H]1CN([C@H](C)CO)C(=O)Cc2cc(N(C)C)ccc2O[C@@H]1CN(C)C(=O)NC1CCCCC1	-16
O=C(c1ccc(-n2nc(C(F)(F)F)c3c2CCCC3)cc1)N1CCN(C2CCCCC2)CC1	-66
O=C(NCc1ccccc1F)[C@@H]1[C@@H](CO)[C@@H]2Cn3c(cccc3=O)[C@@H]2N1CC1CCCC1	-19
O=C(Nc1cccc(F)c1)c1nnc(C2CCCN2C(=O)c2cc3ccccc3[nH]2)s1 (stereo not given)	65
COc1cccc(NC(=O)N2C[C@H](O)COC[C@@H]3O[C@@H](CC(=O)N(C)C)CC[C@H]32)c1	31
COc1ccc(OC)c(CNC(=O)c2nc(N3CCCC3)c3ccccc3n2)c1	-61
O=C1CC[C@@H](NC(=O)c2nc3nc4c(c(=O)n3[nH]2)CCC4)[C@H](c2ccsc2)N1	43
Cc1cc(C)c2[nH]c(C)c(CC(=O)N3CCC(N4CCCC4=O)CC3)c2c1	0
O=C(O)c1cc(-c2cccc3c2OCC3)cc(S(=O)(=O)N2CCCC2)c1	-2
CCc1cnc(N2CCc3ncnc(-c4cnn(C)c4)c3CC2)nc1	2
C[C@H](O)CNC(=O)c1cc(Cn2ccc3ccccc32)[nH]n1	3
O=C(NCCN1CCCCC1)c1ccc(I)cc1	-23&22
Cc1scc(C(=O)O)c1-c1ccccc1	15

Next part.
SMILES	Tg IFNy HTS
CCOc1ccccc1-c1nc(Cn2nnc(C(=O)Nc3ccc(C)cc3Br)c2C)c(C)o1	32
O=C(NCCc1csc(-c2ccc(F)cc2)n1)c1cccc(C(F)(F)F)c1	-34
CCn1cc(CN2CCN(CC(=O)N(C)C3CCS(=O)(=O)C3)CC2)c(C)n1 (stereo not given)	8
CCCNC(=O)Oc1noc2ccc(Cl)cc12	-29
Cc1ccccc1NC(=O)N1CCC(c2nc(C(=O)N(C)C)c(C)o2)CC1	55
C=CCN(Cc1ccccc1OC)C(=O)C(C)c1ccccc1 (stereo not given)	-16
C[C@H](NC(=O)C[C@H]1C=C[C@@H](NS(=O)(=O)c2cccc(F)c2)[C@@H](CO)O1)c1ccccc1	-19
Cc1cnn(Cc2cccc(Cl)c2)c1NC(=O)CN1CCOC1=O	79
CCN1CCOCC2(CCCN(C(=O)N(C)C)C2)C1 (stereo not given)	-26
COc1ccc(-c2nc(NCCN(Cc3ccco3)C3CCCC3)c3ccccc3n2)cc1	-46
COc1ccc(S(=O)(=O)N2CCC[C@@H]2C(=O)NCCc2csc(C)n2)cc1	22
CCCNC(=O)N1CC2(C1)CN(S(C)(=O)=O)[C@H](CO)c1c2c2ccc(OC)cc2n1C	3
CCOC(=O)c1nc(N(CC)Cc2ccccc2)c2ccccc2n1	-46
NC(=O)CCn1cc(-c2c(-c3ccccc3)ncn2CCO)c2ccccc21	-1
O=C(Cn1nnc2ccccc21)N1CCCC(c2ncncc2-c2ccncc2)C1 (stereo not given)	20

An excerpt; count on the stated rates, not on these rows.
